Bioassay records: PubChem, Center for Chemical Genomics, University of Michigan
HIV TAR-Tat – HIV-1 TAR-Tat binding disruption; 100,000 compounds, 0.6% hits; HIV-1 TAR RNA, Tat peptide displacement FRET; hits give high values; AID 1259389; z-score (concentration not given with the values);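 further: score is relative to mean and SD of negative controls; some compounds called inactive have numbers as strong as hits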
CDC25B CDK2 inh – human CDC25B-CDK2/CyclinA binding inhibition; P30305+P24941; HTRF CDC25B-CDK2/CyclinA binding, anti-His/anti-Flag; hits give high values; z-score (no concentration beside the values); 94,000 compounds, 0.72% hits; AID 1259370;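 further: score is relative to mean and SD of negative controls; strong numbers were not always called active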
The depositor's hits bear a star; / = no result given.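 How the source made its calls: active means z-score from 3 up in half or more of its runs; inactive means the rest.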

Order of results – HIV TAR-Tat	CDC25B CDK2 inh
Cc1ccccc1C1NCCN=C1NC1CCCCC1 (centres undefined)
  -0.99	/
Cc1ccc(Nc2nc(N3CC(C)CC(C)C3)nc3c2cnn3C)cc1 (centres undefined)
  0.07	/
Cc1cc2nnc(/C(N)=N/O)c(C)n2n1
  /	-2.6
COc1cccc(CN2CCc3nc(N4CCN(C)CC4)ncc3C2)c1
  2	/
CCn1c(N)c(C(=O)NCCOC)sc1=S
  -2.1	-1.6
COc1ccc(C2c3c(-c4ccccc4O)n[nH]c3C(=O)N2CC2CCCO2)cc1 (centres undefined)
  0.78	0.98
Cc1ccc(-n2c(-c3ccc(Cl)cc3)n[nH]c2=S)cc1
  /	-0.43
Cc1cc(C)n(-c2nc3ccccc3nc2NCc2ccc3c(c2)OCO3)n1
  1.5	-6.2
CCOc1cc(C2c3c(oc4ccccc4c3=O)C(=O)N2c2ccc(C)cn2)ccc1O (centres undefined)
  0.16	-0.68
O=S1(=O)C[C@H](NCc2cccnc2)[C@@H](S(=O)(=O)c2ccc(F)cc2)C1
  0	-1
COc1ccccc1NC(=O)c1c2c(nn1C)-c1ccccc1SC2
  1.6	-0.96
COc1ccc(C2C(C(=O)O)c3ccccc3C(=O)N2Cc2ccc(F)cc2)cc1 (centres undefined)
  /	-0.79
O=C(Nc1ccccc1)c1nc2ccccc2nc1Cl
  -0.34	-0.65
CC(C)C12CC3CC(CC(Br)(C3)C1)C2
  /	-1.1
CN(C)c1ccc(CNS(=O)(=O)c2ccc3c(c2)NC(=O)CS3)cc1
  1.6	/
COc1ccc(-n2ccc(=O)c(C(=O)Nc3ccc(F)cc3)n2)cc1
  1.4	-2.4
COCCCNc1nc(N)c([N+](=O)[O-])c(Nc2ccc(F)cc2)n1
  1.1	/
CN(CC(=O)N1CCc2ccccc21)S(=O)(=O)c1ccc2[nH]c3c(c2c1)CCCC3
  1.8	/
CS(=O)(=O)c1ncc(Cl)c(C(=O)Nc2c(C(=O)c3ccc(F)cc3)oc3ccccc23)n1
  0.71	-0.22
Fc1ccc(OCc2nnc3n2N=C(c2ccc(Cl)cc2)CS3)cc1
  1.1	0.39

In the list so far, these have fluorine.
Order of results – HIV TAR-Tat	CDC25B CDK2 inh
O=S1(=O)C[C@H](NCc2cccnc2)[C@@H](S(=O)(=O)c2ccc(F)cc2)C1
  0	-1
COc1ccc(C2C(C(=O)O)c3ccccc3C(=O)N2Cc2ccc(F)cc2)cc1 (centres undefined)
  /	-0.79
COc1ccc(-n2ccc(=O)c(C(=O)Nc3ccc(F)cc3)n2)cc1
  1.4	-2.4
COCCCNc1nc(N)c([N+](=O)[O-])c(Nc2ccc(F)cc2)n1
  1.1	/
CS(=O)(=O)c1ncc(Cl)c(C(=O)Nc2c(C(=O)c3ccc(F)cc3)oc3ccccc23)n1
  0.71	-0.22
Fc1ccc(OCc2nnc3n2N=C(c2ccc(Cl)cc2)CS3)cc1
  1.1	0.39

(cont.)
Order of results – HIV TAR-Tat	CDC25B CDK2 inh
CCOC(=O)c1[nH]c(C)c(C(=O)NCCCN2CCCCCC2)c1C
  /	-0.26
Cc1nc(-c2ccc(C)c(S(=O)(=O)NCCc3sccc3C)c2)cs1
  0.96	/
CCn1c(SCC(=O)c2ccccc2)nc2sc3c(c2c1=O)CC(C)(C)OC3
  0.79	0.33
CCc1ccc(C(O)(C(C)C)C(CN2CCOCC2)c2ccccc2)cc1 (centres undefined)
  3.1	-1.3
CCCC1c2cccn2CCN1C(=O)Nc1ccc(Br)cc1 (centres undefined)
  0.38	/
COC(=O)CN1C(=O)c2ccccc2Sc2ncccc21
  1.6	-1
Cc1c(S(=O)(=O)C(C)C)c(N)n(Cc2cccnc2)c1C
  /	-0.89
O=C(c1ccc2c(c1)OCO2)N1CCC(c2nc3c(nnn3Cc3ccccc3F)c(=O)[nH]2)CC1
  -0.8	-0.56
CS/C(NCc1cccnc1)=C(/C#N)S(=O)(=O)c1ccc(Cl)cc1
  /	-0.09
O=S(=O)(c1ccccc1)n1nc(-c2cccnc2)nc1NCc1cccs1
  0.78	-0.45
CCc1nn2c(=O)cc(CSCc3ccco3)nc2s1
  0.21	-0.68
CCCCNc1c([N+](=O)[O-])c(=O)sc2ccccc12
  1.5	-0.17
Cc1cc2c(cc3c(=O)n(CC(=O)NC4CCCCC4)ncn32)s1
  /	-1.9
CCCSCCCN1C(=O)Cn2cccc2C1C(=O)NC1CCC(C)CC1 (centres undefined)
  2.2	-0.88
O=C(CSCc1ccccc1)Nc1nnc(C(F)(F)F)s1
  /	-0.08
CCNC(=O)NC1COc2ccccc2C1 (centres undefined)
  0.31	/
CCOC(=O)C1CCN(S(=O)(=O)c2cc3[nH]c(=O)[nH]c3cc2C)CC1
  1.5	-0.63
Clc1ccc(OCc2nnc3sc(-c4ccccc4)nn23)cc1
  0.28	-1.5
CCc1ccccc1NS(=O)(=O)c1cc(-c2onc(C)c2C)ccc1C
  1	/
CCOC(=O)CSc1nc(N2CCOCC2)c2c(c1C#N)CCCC2
  0.81	-2
CCS(=O)(=O)N1CCC(C(=O)NCCOC)CC1
  1.5	/
CCc1nn(CC(=O)NC(C)C)c(=O)c2cc3ccccc3n12
  1.2	-1.6
CC(C)(C)OC(=O)N1CCCN(C(=O)c2ccc([N+](=O)[O-])cc2)CC1
  /	-1.5
CC1CCCN(C(=O)C(=O)c2c[nH]c3ccccc23)C1 (centres undefined)
  /	-3.1
Cc1ccc2nc(COc3ccc(NS(=O)(=O)c4ccccc4)cc3)cc(=O)n2c1
  0.01	/
O=C(O)c1cnn2c(C(F)(F)F)cc(-c3ccc(F)cc3)nc12
  1.4	/
Cc1nc2c(C)cccn2c(=O)c1Cc1nnc(SCC(=O)Nc2cccc(F)c2)n1C
  -0.52	-1.9
CCOC(=O)c1c(C)oc2nc(C)nc(N3CCN(C(=O)c4ccco4)CC3)c12
  0.41	/
COc1cccc(OC)c1C(=O)Nc1cccc(C(=O)Nc2ccccc2C(=O)O)c1
  /	-1.6
COc1ccc(OC)c(CNC(=O)c2cnc3sc(N4CCCC4)nn3c2=O)c1
  1.5	/

In another format: results already given
CCS(=O)(=O)N1CCC(C(=O)NCCOC)CC1
- HIV TAR-Tat: 1.5
- CDC25B CDK2 inh: /

CCc1nn(CC(=O)NC(C)C)c(=O)c2cc3ccccc3n12
- HIV TAR-Tat: 1.2
- CDC25B CDK2 inh: -1.6

Continuation.
molecule	HIV TAR-Tat	CDC25B CDK2 inh
Cc1ccc(S(=O)(=O)Nc2cc3c(cc2N2CCCC2)n(C)c(=O)n3C)cc1	0.54	/
CCOc1ccc(Nc2nc(NCC3CCCO3)c3ccccc3n2)cc1 (centres undefined)	/	0.79
Cc1ccc(-n2ncc3c(NCC(C)C)ncnc32)cc1C	0.49	/
O=C(O)CSc1c2c(nc3cc(C(=O)NCCN4CCOCC4)ccc13)CCC2	-0.96	-2
Cc1ccc2c3c1C(=O)C(=O)N3C(C)(C)CC2(C)c1ccccc1 (centres undefined)	3.1	-1.9
Cc1ccc(-c2noc(CN(C)C(=O)NC3CCCCC3)n2)cc1	-0.04	-1.6
CC(=O)N1CCC2(CC1)C(C#N)=C(N)OC1=C2C(=O)CCC1	/	-0.93
O=C(Nc1ccc(Br)cc1)c1cnn(-c2ccccc2)c1C1CCNCC1	1.7	/
CCNC(=O)C1=Cc2ccccc2OC1	0.51	/
Cc1ncc(-c2ccc(C)c(S(=O)(=O)Nc3ccc(C)c(N(C)C)c3)c2)o1	1.6	/
CC1CCN(C(=O)Cn2ncn3c(cc4sccc43)c2=O)CC1	0.16	0.89
O=C(Nc1nc2ccc(S(=O)(=O)NC3CCCCC3)cc2s1)c1ccco1	1.2	/
Cc1[nH]nc(-n2cnnc2)c1NC(=O)C(C)C	1	-0.9
Cc1ccc(-c2nc(C(N)=O)c3[nH]c(=O)n(-c4ccc(C)c(C)c4)c3n2)cc1	0.81	/
O=C(NCc1cccs1)c1cnc2sc(N3CCOCC3)nn2c1=O	1.1	/
O=C(Cn1nc2c(cc1=O)CCCC2)Nc1ccccc1	-0.07	/
O=C(NCc1ccccn1)C1CCCN(c2nc3cccnc3s2)C1 (centres undefined)	0.25	/
O=C1c2[nH]nc(-c3ccccc3O)c2C(c2ccc(OCc3ccccc3)cc2)N1Cc1ccco1 (centres undefined)	-0.46	-0.35
CC(=O)NC(=O)/C(C#N)=C/NCc1cccs1	/	-0.43
Cc1ccc(C)c(Cn2cnc3c(nnn3Cc3ccc(Cl)cc3)c2=O)c1	2.4	-0.5
CC(=O)N1c2ccc(S(=O)(=O)NC(C(=O)Nc3nccs3)C(C)C)cc2CC1C (centres undefined)	1.1	/
CC1Cc2cc(-c3cc(C(=O)Nc4sc5c(c4C#N)CCCC5)no3)ccc2O1 (centres undefined)	-0.24	-2.2
CC1=C(C(=O)OC2CCCC2)C(c2coc3ccc(Cl)cc3c2=O)C2=C(CCCC2=O)N1 (centres undefined)	0.48	-1.6
CCOc1ccc(OCCSc2nnnn2C2CCCCC2)cc1	2.5	-2.5
Cc1cccc(NC(=O)c2c(C)oc3ncnc(N4CCCCC4)c23)n1	-0.09	/
CN(CCNC(=O)C1CCN(c2nnc(-n3cccc3)s2)CC1)C1CCCCC1	-1.1	-2
Cn1c(SCC(=O)NC2CCCC2)ncc(C(=O)Nc2ccccc2)c1=O	0.99	/
O=C(CCCN1C(=O)c2cccc3cccc(c23)C1=O)N1CCOCC1	0.33	-0.78
Cc1ccc(S(=O)(=O)c2nc(S(=O)(=O)c3ccccc3)sc2NCCCOC(C)C)cc1	1.3	-2.6
COc1ccc(N2CCN(C(=O)NC3(C(F)(F)F)Oc4ccccc4O3)CC2)cc1	/	-1.3
FC(F)(F)c1cc(-c2ccccc2)nc2ncnn12	0.44	-1.2
Cc1ccc(Cn2c(=O)n(Cc3ccco3)c(=O)c3oc4ccccc4c32)cc1	1.7	/
CCCCNc1ncnc2sc3c(c12)CCCC3	/	-2.7
CN1CCOc2ccc(S(=O)(=O)Nc3ccc(F)cc3)cc21	1.3	/
COc1ccc(/C=C/c2nc(=O)cc(-c3ccccc3)o2)cc1	/	-2.2
CCN(c1cccc(C)c1)S(=O)(=O)c1ccc(-c2cc(C)no2)s1	0.97	/
O=C(NCc1cccc(Cl)c1)N/N=C/c1cccs1	/	6.3
O=C(Nc1ccc(Cl)cc1)N1CCCN(Cc2nc3cc(Cl)ccc3o2)CC1	2	/
CC(=O)NN1C(=O)c2ccc(Oc3ccc4c(c3)C(=O)N(NC(C)=O)C4=O)cc2C1=O	/	-2.2
COc1ccccc1NC(=O)N1Cc2cccn2-c2ccccc21	0.46	-1.1
Cc1ccc2nc(NC(=O)Cn3c(=O)oc4ccc(C(=O)N5CCCC5)cc43)sc2c1	0.85	/
CC(C)CNS(=O)(=O)c1ccc(N2CCCCS2(=O)=O)cc1	2	/
Cc1cc(NC(=O)c2ccco2)cc(-c2nc3ncccc3o2)c1O	0.89	0.28
CC1=C(C(=O)OC(C)C)C(c2cc3c(cc2Br)OCO3)NC(=O)N1 (centres undefined)	/	-1.3
O=C1CSc2ccc(S(=O)(=O)N3CCC(C(=O)NC4CCCCC4)CC3)cc2N1	1.9	/
Cc1cccc(Cl)c1Oc1c([N+](=O)[O-])c(C)nn1C	/	-1.4
O=C(Nc1ccc(Cl)cc1)Nc1cccnc1	/	4.3
O=C1C=C(SCc2c(F)cccc2Cl)CC(c2ccccc2)C1 (centres undefined)	/	-0.32
O=C(NCc1c(Cl)cccc1Oc1ccccc1)c1ccc2c(c1)OCC2	/	-2.5
CCOC(=O)CSCc1nc(-c2ccc(C)cc2)oc1C	2.2	/
CN1C(C(=O)NC(C)(C)C)=CC(c2ccc(F)cc2)=NS1(=O)=O	2.8	-2.3
CCCNc1nc2ccc(C(=O)c3ccccc3)cc2n2cnnc12	0.37	/
N/C(=N\OC(=O)/C=C/C(=O)O)c1cc(C(F)(F)F)cc(C(F)(F)F)c1	/	-1.9
CN(C)CCNc1nc(NCc2ccccc2)c2cnn(C)c2n1	0.95	/
O=c1c(N2CCN(c3ccccc3)CC2)csc2ccc(F)cc12	-1.1	/
Cc1ccc(S(=O)(=O)NCc2cccn2Cc2ccc(Cl)cc2)cc1C	1.6	/
CC(=O)N1CCCSc2ccc(S(=O)(=O)N3CCCC(CN4CCc5ccccc5C4)C3)cc21 (centres undefined)	2.2	/
O=C(COCc1cc(-c2cccs2)on1)NCCN1CCOCC1	0.46	/
CCCCc1cc(=O)oc2c(C)c(OCC(N)=O)ccc12	/	-0.26
C=CCOc1ccc(C2c3c(-c4ccccc4O)n[nH]c3C(=O)N2Cc2ccncc2)cc1OCC (centres undefined)	-0.09	-1.9

Following part:
molecule	HIV TAR-Tat	CDC25B CDK2 inh
CCCN(CCC)Cc1c(C)[nH]c2ccc(CC)cc2c1=O	/	-0.83
CCOC(=O)c1cn2c3c(ccc(Cl)c3c1=O)OC(C)C2 (centres undefined)	17*	/
Cc1ccc(Cn2nc(C(=O)O/N=C(\N)c3ccccc3)cc2C)cc1	/	-1.9
O=C(CSc1nc2ncccc2[nH]1)Nc1ccc(Cl)cc1	-0.45	-0.3
O=C(c1ccc(CS(=O)c2cccc(Cl)c2)o1)N1CCN(c2ccccn2)CC1 (centres undefined)	0.79	/
COc1cc(CN2CCN(Cc3cc(OC)c4c(c3)OCO4)CC2)cc2c1OCO2	/	-1.2
CCOC(=O)c1c(NC(=O)c2cc3ccccc3c(=O)s2)sc(C)c1C	-0.07	-2.2
C=CCNc1ncnc2c1cnn2-c1ccc(OC)cc1	/	-2.3
CCn1c(N2CCNCC2)nc2c1c(=O)[nH]c(=O)n2C	/	-0.29
Cc1cc(C(F)(F)F)n2nc(-c3ccccc3)cc2n1	-0.77	-0.2
CC1CC(C)CN(C(=O)CN(C)S(=O)(=O)c2ccc3c(c2)C(C)(C)C(=O)N3C)C1 (centres undefined)	1.4	/
CC(C)NC(=O)CCc1nnc2ccc(N3CCN(C)CC3)nn12	-0.52	/
